Compound activity: PubChem, several laboratories
CSC inhib: blocks cancer stem cells; cancer stem cell-like cells viability, luminescence; inhibition, % at 7.5 µM; actives 1.1% (n = 300,000);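 active = mean at 75% or more and at least half the replicates too; inconclusive = mean and replicates disagree; tested in HMLE shEcad cells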;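 note: 0% = median of negative and 100% = median of positive control wells; the first replicate is given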
UUG fidelity: alters start codon recognition fidelity in yeast | AID 602363 | S. cerevisiae UUG-firefly luciferase reporter, luminescence/redox ratio | activity score, % at 18.7 µM | actives 0.13% (n = 350,000);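 active = replicate mean at a twofold rise or more, about +100% in these data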;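 note: firefly luciferase made from a UUG start codon reports start codon fidelity; reporter light over untreated wells divided by growth signal over untreated wells; some hits fall short of that in this replicate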
HIV Env fusion: HIV envelope-mediated fusion inhibition; HeLa-JRFL Env/CEM21 cell fusion, luciferase; inhibition, % at 12.3 µM; actives 1.1% (n = 360,000);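 active = mean replicate inhibition score of at least 50 and every replicate individually at or above 50; inconclusive = only one of the two criteria met; inactive = mean below 50 and not all replicates reaching 50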;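 note: 0% = plate neutral controls and 100% = maraviroc near 300 nM; one replicate is shown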
MT1-MMP act inh: inhibitors of human MT1-MMP activation; P50281; HT1080 RFP-PRO-GFP cells, GFP/RFP ratio fluorescence, overnight; percent of plate control window, DMSO zero; actives 0.061% (n = 360,000); GFP/RFP ratio change, % at 20 µM;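 active = GFP/RFP ratio change of at least 30% with cell ATP level not reduced by more than half and red fluorescence within 50% of control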; note: strong numbers were not always called active
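Material: RFP-PRO-GFP reporter HT1080 cells. Dosing: single-point 20 µM compound, 1% DMSO. Controls: DMSO and RFP-L50D-GFP cell wells. Timing: cells overnight before dosing, compound overnight, 37 °C, 5% CO2. Measure: GFP/RFP fluorescence ratio.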
MT1-MMP act inh RFP: recorded beside MT1-MMP act inh, whose call it bears; RFP signal change, %; measured here: RFP expression control read;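 0 = vehicle wells; hits needed this value within 50% of zero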
Starred values were filed as active, the others as inactive; ? = inconclusive; / = no result given; [ ] = remark or other dose. Only part of the results is shown (hit frequency here may not be typical).

| SMILES | CSC inhib | UUG fidelity | HIV Env fusion | MT1-MMP act inh | MT1-MMP act inh RFP |
| --- | --- | --- | --- | --- | --- |
| Cc1ccc2nc3n(c(=O)c2c1)-c1ccccc1C(=O)NC3Cc1ccccc1 (stereo not given) | -8.0 | / | -29.6 | / | / |
| COc1cc(OC)c(/C=C2\C(=O)Nc3ccccc32)c(OC)c1 | 59.7 | / | 14.4 | / | / |
| O=C1CCCC(=NNC(=O)c2cc3ccccc3cc2O)C1 | -8.3 | / | / | -14.1 | 1.2 |
| O=C(O)c1ccccc1NS(=O)(=O)c1ccc(NN=Cc2ccc(F)cc2)c([N+](=O)[O-])c1 | 45.5 | / | / | 6.6 | -2.0 |
| CCN1/C(=C/c2ccc3cc(C)ccc3[n+]2CC)Sc2ccc3sccc3c21 | 49.3 | / | / | -20.1 | 61.7 |
| COc1ccc(C(=O)NCc2ccco2)cc1S(=O)(=O)NC1CC1 | 0.1 | / | / | -0.7 | 2.3 |
| COc1ccccc1NS(=O)(=O)c1ccc(C(=O)N2CCCCCCC2)cc1 | -18.9 | / | / | 3.1 | -5.7 |
| O=C(NCC1CCCO1)c1ccccc1NS(=O)(=O)c1cc([N+](=O)[O-])ccc1Cl (stereo not given) | -15.6 | / | / | 2.0 | -8.0 |
| CCCn1nc(C(=O)NNC(=O)c2ccc(C)c(C)c2)c2ccccc2c1=O | -11.5 | / | / | -2.1 | 1.4 |
| CC(NC(=O)c1cc(S(=O)(=O)N2CCCC2)ccc1Cl)c1ccccn1 (stereo not given) | -8.2 | / | / | -1.5 | -0.2 |
| CCc1ccc(NC(=O)C(C)Sc2nnc(CN3CCCC3)o2)cc1 (stereo not given) | 6.9 | / | / | -1.5 | 4.9 |
| O=C(Cc1ccc(Br)cc1)N1CCN(C(=O)c2ccccc2)CC1 | -7.0 | / | / | 2.8 | 2.3 |
| CSc1ccc(S(=O)(=O)NCC(=O)OCCOc2ccccc2)cc1[N+](=O)[O-] | -9.1 | / | / | -2.6 | -3.6 |
| O=C(CCc1nc2ccccc2c(=O)[nH]1)N1CCCc2ccccc21 | -1.5 | / | / | -27.6 | 3.0 |
| CCOc1ncccc1C(=O)Nc1ccccc1N1CCOCC1 | 4.1 | / | / | 0.0 | 0.1 |
| Cc1ccc(S(=O)(=O)Nc2ccc(C(=O)NCCCN3CCOCC3)cc2)cc1[N+](=O)[O-] | -16.1 | / | / | 0.4 | 1.4 |
| Cc1ccc(S(=O)(=O)N2CCN(Cc3cc4c(cc3Br)OCCO4)CC2)cc1 | -3.3 | / | / | 5.1 | -2.4 |
| O=C(CCc1nc2ccccc2c(=O)[nH]1)Nc1nnc(SCc2ccc(Cl)cc2)s1 | -1.9 | / | / | -4.1 | -3.4 |
| COc1ccc(NC(=O)CN2C(=O)NC(C)(C3CC3)C2=O)cc1S(=O)(=O)N1CCOCC1 (stereo not given) | 4.8 | / | / | 0.7 | 3.5 |
| Cc1ccc(C)c(NC(=O)CN(C)C(=O)CN2C(=O)NC3(CCc4ccccc43)C2=O)c1 (stereo not given) | 0.4 | / | / | 1.5 | 2.7 |

The list goes on.
| SMILES | CSC inhib | UUG fidelity | HIV Env fusion | MT1-MMP act inh | MT1-MMP act inh RFP |
| --- | --- | --- | --- | --- | --- |
| O=C(COC(=O)C12CC3CC(CC(Br)(C3)C1)C2)Nc1cccc(S(=O)(=O)N2CCOCC2)c1 | -13.7 | / | / | 2.0 | -8.3 |
| O=C(CCN=C1NS(=O)(=O)c2ccccc21)Nc1ccc(Cl)cc1F | -1.1 | / | / | 2.1 | 0.1 |
| O=C(C[C@H]1C[C@@H]2c3cc(NC(=O)C4CCC4)ccc3O[C@@H]2[C@H](CO)O1)NCc1ccc2c(c1)OCO2 | / | 29.3 | -19.2[16.7 µM] | / | / |
| C[C@@H]1CCCCO[C@@H](CN(C)C(=O)C2CCCCC2)[C@H](C)CN([C@@H](C)CO)C(=O)c2cc(NC(=O)Nc3ccc(F)cc3)ccc2O1 | / | -5.6 | -5.0[16.7 µM] | / | / |
| CCC(=O)N(C)C[C@@H]1Oc2ncc(-c3cccc(OC)c3)cc2C(=O)N([C@@H](C)CO)C[C@@H]1C | / | 2.2 | -4.9[16.7 µM] | / | / |
| COc1ccccc1C#Cc1ccc2c(c1)O[C@@H](CN(C)C)[C@@H](C)CN([C@@H](C)CO)S2(=O)=O | / | 1.1 | -5.8[16.7 µM] | / | / |
| C[C@@H]1CN([C@H](C)CO)S(=O)(=O)c2ccc(C#CC3(O)CCCC3)cc2O[C@H]1CN(C)C | / | 10.6 | 0.8[16.7 µM] | / | / |
| C[C@H]1CN([C@@H](C)CO)C(=O)c2cc(C#CCc3ccccc3)cnc2O[C@H]1CN(C)C(=O)C1CC1 | / | 2.3 | 9.5[16.7 µM] | / | / |
| CC(C)C#Cc1ccc2c(c1)O[C@@H](CN(C)CC1CC1)[C@@H](C)CN([C@H](C)CO)S2(=O)=O | / | 16.4 | 0.5[16.7 µM] | / | / |
| C[C@@H]1CCCCO[C@H](CN(C)Cc2ccc(C(F)(F)F)cc2)[C@@H](C)CN([C@@H](C)CO)C(=O)c2cc(NS(C)(=O)=O)ccc2O1 | / | 13.5 | 0.0[16.7 µM] | / | / |
| COc1cccc(S(=O)(=O)N[C@@H]2C=C[C@@H](CC(=O)NCc3ccncc3)O[C@@H]2CO)c1 | / | -19.0 | 9.2[16.7 µM] | / | / |
| C[C@@H]1CCCCO[C@H](CN(C)CC2CCCCC2)[C@@H](C)CN([C@H](C)CO)C(=O)c2cc(NS(=O)(=O)c3cccs3)ccc2O1 | / | 8.9 | -111.3[16.7 µM] | / | / |
| CC(C)CC#Cc1cnc2c(c1)C(=O)N([C@@H](C)CO)C[C@@H](C)[C@@H](CN(C)Cc1ccccc1F)O2 | / | -6.0 | 17.5[16.7 µM] | / | / |
| C[C@@H]1CN([C@H](C)CO)C(=O)c2cc(C#CC(C)(C)O)cnc2O[C@H]1CN(C)Cc1cncnc1 | / | 13.7 | -21.0[16.7 µM] | / | / |
| COCC(=O)N(C)C[C@H]1Oc2cc(C#C[C@@H](C)O)ccc2S(=O)(=O)N([C@H](C)CO)C[C@H]1C | / | -9.9 | 9.1[16.7 µM] | / | / |
| Cc1ccc(S(=O)(=O)N(C)C[C@H]2OCCCC[C@@H](C)Oc3ccc(NS(=O)(=O)c4ccc(Cl)cc4)cc3C(=O)N([C@H](C)CO)C[C@@H]2C)cc1 | / | -1.7 | -22.0[16.7 µM] | / | / |
| C[C@@H]1CN([C@@H](C)CO)C(=O)c2cc(-c3ccc(C#N)cc3)cnc2O[C@@H]1CN(C)C(=O)CC1CC1 | / | 3.6 | 6.4[16.7 µM] | / | / |
| COc1cccc(CNC(=O)C[C@@H]2C=C[C@@H](NC(=O)C3CC3)[C@@H](CO)O2)c1 | / | -0.4 | -24.5[16.7 µM] | / | / |
| CC(=O)Nc1ccc2c(c1)C(=O)N(C)[C@@H]1CC[C@@H](CC(=O)Nc3cn(C)nc3C)O[C@@H]1CO2 | / | -9.4 | 5.4[16.7 µM] | / | / |
| C[C@H](O)C#Cc1cnc2c(c1)C(=O)N([C@H](C)CO)C[C@H](C)[C@@H](CN(C)CC1CCCCC1)O2 | / | 15.0 | -20.5[16.7 µM] | / | / |

(more compounds)
| SMILES | CSC inhib | UUG fidelity | HIV Env fusion | MT1-MMP act inh | MT1-MMP act inh RFP |
| --- | --- | --- | --- | --- | --- |
| O=C(NC1CCCCC1)N[C@@H]1CC[C@H](CCNS(=O)(=O)c2ccc(F)cc2)O[C@@H]1CO | / | 4.5 | -15.4[16.7 µM] | / | / |
| C/C=C/c1ccc2c(c1)O[C@H](CN(C)C(=O)Nc1ccc(OC)cc1)[C@@H](C)CN([C@@H](C)CO)S2(=O)=O | / | -6.5 | 0.0[16.7 µM] | / | / |
| CCCC(=O)Nc1ccc2c(c1)C(=O)N(C)[C@H]1CC[C@H](CC(=O)O)O[C@@H]1CO2 | / | -17.5 | -28.3[16.7 µM] | / | / |
| C[C@@H]1CN([C@@H](C)CO)C(=O)c2cc(NC(=O)Nc3ccc4c(c3)OCO4)ccc2O[C@@H](C)CCCCO[C@H]1CN(C)CC1CCCCC1 | / | 4.9 | 1.7[16.7 µM] | / | / |
| Cc1ccc(S(=O)(=O)N(C)C[C@@H]2Oc3cc(-c4cccc(F)c4)ccc3S(=O)(=O)N([C@H](C)CO)C[C@@H]2C)cc1 | / | -21.9 | 5.4[16.7 µM] | / | / |
| COc1ccc(S(=O)(=O)N(C)C[C@H]2OCCCC[C@H](C)Oc3ccc(NS(=O)(=O)c4ccccc4)cc3C(=O)N([C@H](C)CO)C[C@@H]2C)cc1 | / | 3.8 | -41.1[16.7 µM] | / | / |
| COCCNC(=O)C[C@H]1CC[C@@H](NC(=O)NC2CCCC2)[C@@H](CO)O1 | / | -10.0 | -18.5[16.7 µM] | / | / |
| C[C@@H]1CN([C@@H](C)CO)C(=O)c2cc(-c3ccccc3F)cnc2O[C@@H]1CN(C)Cc1ccccc1 | / | 4.7 | 5.5[16.7 µM] | / | / |
| CO[C@@H]1CN(C)C(=O)c2cc(NC(C)=O)ccc2OC[C@H](C)N(C(=O)c2ccccc2)C[C@@H]1C | / | 7.2 | -2.2[16.7 µM] | / | / |
| COc1cccc(NC(=O)N(C)C[C@H]2Oc3cc(-c4ccccc4OC)ccc3S(=O)(=O)N([C@@H](C)CO)C[C@@H]2C)c1 | / | 11.4 | -2.0[16.7 µM] | / | / |
| [N-]=[N+]=NCc1ccccc1C[C@]1(C(=O)NCc2ccccc2)COC(c2ccc(OCCCO)cc2)=N1 | / | -10.3 | 1.2[16.7 µM] | / | / |
| C[C@@H]1CN([C@@H](C)CO)C(=O)c2cccc(NS(=O)(=O)c3ccc(F)cc3)c2O[C@@H]1CN(C)C(=O)Nc1ccc(C(F)(F)F)cc1 | / | -2.3 | 9.1[16.7 µM] | / | / |
| C[C@@H]1CN([C@@H](C)CO)C(=O)c2cc(NC(=O)Nc3ccc4c(c3)OCO4)ccc2O[C@@H](C)CCCCO[C@@H]1CN(C)Cc1ccc(C(=O)O)cc1 | / | 7.9 | 9.5[16.7 µM] | / | / |
| C[C@@H]1CCCCO[C@@H](CN(C)C(=O)NC2CCCCC2)[C@H](C)CN([C@@H](C)CO)C(=O)c2cc(NC(=O)Nc3ccc(C(F)(F)F)cc3)ccc2O1 | / | -8.9 | 14.5[16.7 µM] | / | / |
| C[C@H](CO)N1C[C@H](C)[C@@H](CN(C)C(=O)c2ccccc2)Oc2cc(C#CC3CC3)ccc2S1(=O)=O | / | -0.5 | -14.2[16.7 µM] | / | / |
| C[C@H]1CCCCO[C@H](CN(C)Cc2ccncc2)[C@@H](C)CN([C@@H](C)CO)C(=O)c2cc(NC(=O)Nc3ccc4c(c3)OCO4)ccc2O1 | / | 3.8 | -39.0[16.7 µM] | / | / |
| C[C@@H]1CN([C@@H](C)CO)C(=O)c2cccc(NC(=O)C3CCOCC3)c2O[C@H]1CN(C)CC1CC1 | / | -8.2 | 10.7[16.7 µM] | / | / |
| Cc1ccc(S(=O)(=O)N(C)C[C@@H]2Oc3ccc(NC(=O)Cc4cn(C)c5ccccc45)cc3CC(=O)N([C@H](C)CO)C[C@@H]2C)cc1 | / | -8.0 | 73.7*[16.7 µM] | / | / |
| CC(C)NC(=O)Nc1ccc2c(c1)CC(=O)N([C@H](C)CO)C[C@@H](C)[C@@H](CN(C)S(=O)(=O)c1cn(C)cn1)O2 | / | 5.9 | -9.2[16.7 µM] | / | / |
| O=C(C[C@H]1C[C@@H]2c3cc(NC(=O)NC4CCCC4)ccc3O[C@@H]2[C@H](CO)O1)NCC1CC1 | / | 1.8 | 12.7[16.7 µM] | / | / |

More structures.
| SMILES | CSC inhib | UUG fidelity | HIV Env fusion | MT1-MMP act inh | MT1-MMP act inh RFP |
| --- | --- | --- | --- | --- | --- |
| Cc1noc(C)c1NC(=O)Nc1ccc2c(c1)CC(=O)N([C@@H](C)CO)C[C@@H](C)[C@@H](CN(C)Cc1ccc(C(=O)O)cc1)O2 | / | -1.6 | -6.0[16.7 µM] | / | / |
| CC(C)CC#Cc1ccc2c(c1)O[C@@H](CN(C)C(=O)Cc1cccnc1)[C@H](C)CN([C@H](C)CO)S2(=O)=O | / | 13.0 | 17.4[16.7 µM] | / | / |
| C[C@@H]1CN([C@@H](C)CO)S(=O)(=O)c2ccc(-c3ccccc3)cc2O[C@@H]1CN(C)Cc1cccnc1 | / | -10.1 | -36.7[16.7 µM] | / | / |
| C[C@H](CO)N1C[C@H](C)[C@@H](CN(C)C(=O)C2CCOCC2)Oc2cc(C3=CCCC3)ccc2S1(=O)=O | / | 5.3 | 0.0[16.7 µM] | / | / |
| C[C@@H]1CN([C@@H](C)CO)S(=O)(=O)c2ccc(C#Cc3ccccc3F)cc2O[C@@H]1CN(C)C(=O)Cc1cccnc1 | / | 26.1 | ? | / | / |
| Cc1ccsc1C(=O)N1CCCCCC1(C)C(=O)NCC(C)C (stereo not given) | / | 0.0 | 2.5 | / | / |
